SARS PLP yeast: SARS-CoV PLP inhibition in yeast; Potency, µM (top dose mostly 32.9 µM), for inactives: at the top dose activity, positive = growth rescue; AID 485353; S. cerevisiae expressing SARS-CoV PLpro, growth rescue; control for the full effect not named in the record; 330,000 tested, 0.19% active; active means well fitted rising curve with a large enough effect; inconclusive means small, poorly fitted or top-dose-only effect; inactive means no such curve, though single readings can be large or run the other way; also: 0% is about no effect; nearly all actives have a fitted effect of over 55% in size; growth read by luminescence after 48 h
NS1 inh: blocks influenza NS1 protein function; S. cerevisiae slowed by influenza A NS1, growth recovery by OD600; Potency, µM (highest dose often 46.1 µM), for inactives: top-dose activity, positive = more growth; 270,000 tested, 0.4% active; AID 2326; active means well fitted rising curve with a large enough effect; inconclusive means small, poorly fitted or top-dose-only effect; inactive means no such curve, though single readings can be large or run the other way; also: nearly all actives have a fitted effect of over 50% in size
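Recovery from NS1-induced slow growth read by OD600 in budding yeast switched to galactose assay medium (pH 6.0, -URA) at 1:100 dilution. Compound 23 nl per well; the matching strain lacking NS1 serves as control.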
RE007 growth inh: less growth of the S. pombe RE007 Vpr strain | S. pombe RE007 Vpr strain, BacTiter-Glo ATP luminescence, 24 h; control for the full effect not named in the record | Potency, µM (top dose mostly 92.2 µM), without a hit: at the top dose activity change, negative = less growth | 360,000 tested, 0.21% active; active = well fitted falling curve with a large enough effect; inconclusive = small, poorly fitted or top-dose-only effect; inactive = no such curve, though single readings can be large or run the other way;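 also: % is scaled to controls: 0 for no effect and ±100 for the full control effect; nearly all actives have a fitted effect of over 50% in size; the assay follows cell death caused by Vpr and the record does not say whether a fall means rescue or toxicity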
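Fission yeast RE007 carrying one integrated HIV-1 vpr copy, seeded at OD 0.01 in PMG+AL medium with 23 nL pinned compound. Grown 24 h at 30 degrees; viability read by BacTiter-Glo luminescence after 5 min.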
MARV entry inh: Marburg virus entry inhibition; 300,000 tested, 1.8% active; Marburg virus pseudotyped entry inhibition, cell reporter; control for the full effect not named in the record; about a third of the inactives were read at about 46 µM; Potency, µM (titrated, usually from 37.8 µM), for the others: at the top dose activity change, negative = inhibition, actives largely listed as inhibitors; active = well fitted inhibition curve with a large enough effect; inconclusive = small, poorly fitted or top-dose-only effect, or effect the other way; inactive = flat fitted curve, though single readings scatter; tested in HEK293 cells; about a fifth of its hits are not listed in these tables; also: % is scaled to controls: 0 for no effect and ±100 for the full control effect; luciferase read-out
Cruzain inh noDet: cruzain (T. cruzi) inhibition without detergent; P25779; purified cruzain, Z-FR-AMC fluorescence, no detergent; Potency, µM, for inactives: max response, negative = inhibition, hits mostly inhibitors; 200,000 tested, 2.3% active;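 also: plate controls were enzyme without inhibitor for no effect and buffer without enzyme for full effect; nearly all actives have a fitted effect of over 40% in size; top concentration of the series not given in the record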
Target sequence (P25779 123-467 limits assumed): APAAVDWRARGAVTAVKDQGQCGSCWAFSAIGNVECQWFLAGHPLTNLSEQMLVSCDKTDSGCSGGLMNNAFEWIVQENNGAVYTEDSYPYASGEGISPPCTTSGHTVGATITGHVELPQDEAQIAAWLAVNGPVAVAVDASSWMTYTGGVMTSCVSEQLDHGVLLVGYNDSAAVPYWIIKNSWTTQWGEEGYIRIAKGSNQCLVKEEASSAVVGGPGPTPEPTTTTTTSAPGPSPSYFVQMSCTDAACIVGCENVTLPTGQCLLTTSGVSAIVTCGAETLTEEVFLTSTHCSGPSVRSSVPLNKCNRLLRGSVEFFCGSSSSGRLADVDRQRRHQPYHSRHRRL
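Detergent-free condition (0.00005% Triton X-100) in acetate buffer pH 5.5 with DTT. 1.5 nM enzyme and compound were pre-mixed 15 min, then 2 uM Z-FR-AMC substrate added; reaction progress from fluorescence change between first and third reads (60 s).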
Lassa entry inh: Lassa virus entry inhibition | Lassa virus pseudotype entry inhibition, cell reporter; control for the full effect not named in the record | Potency, µM (top dose mostly 37.9 µM), inactives show top-dose activity change, negative = inhibition, hits mostly inhibitors | 300,000 tested, 1.2% active | AID 540256; active means well fitted inhibition curve with a large enough effect; inconclusive means small, poorly fitted or top-dose-only effect, or effect the other way; inactive means flat fitted curve, though single readings scatter; tested in HEK293 cells; also: % is scaled to controls: 0 for no effect and ±100 for the full control effect; nearly all actives have a fitted effect of over 50% in size; luciferase read-out
2A StopGo: lowers the luciferase signal of an FMDV 2A StopGo reporter; human cells with a luciferase reporter of 2A StopGo recoding; control for the full effect not named in the record; Potency, µM (doses to about 57.9 µM), for the others: at the top dose signal change, negative = less light; 410,000 tested, 1.2% active; active = well fitted falling curve with a large enough effect; inconclusive = small, poorly fitted or top-dose-only effect; inactive = no such curve, though single readings can be large or run the other way; tested in HEK293T cells; also: % is scaled to controls: 0 for no effect and ±100 for the full control effect; nearly all actives have a fitted effect of over 45% in size; luciferase light after 4 h
Cruzain inh Det: inhibitors of Trypanosoma cruzi cruzain with detergent. P25779. purified cruzain, Z-FR-AMC fluorescence, 0.01% Triton. Potency, µM, inactives show max response, negative = inhibition, usual class: inhibitors. 200,000 tested, 0.43% active;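 also: plate controls were neutral wells for no effect and buffer without enzyme for full effect; nearly all actives have a fitted effect of over 40% in size; top concentration of the series not given in the record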
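Sodium acetate buffer (100 mM, pH 5.5) containing 5 mM DTT and 0.01% Triton X-100 hosted 1.5 nM cruzain and test compound for 15 min at room temperature. Cleavage of 2 uM Z-FR-AMC was then tracked by fluorescence.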
* hit, by the source's call; ? = inconclusive; . = not tested or not shown; & = joins results of further samples; [ ] = remark or other dose. Unless noted, calls follow the shape of the dose curve; as a rule, active = well fitted curve in the direction sought with a large enough effect; inconclusive = small, poorly fitted or top-dose-only effect, or another doubt; inactive = no such curve, though single readings can be large; an effect the other way counts as inactive or inconclusive. Potency is read from the fitted curve at half-maximal effect.

Values in the order – SARS PLP yeast	NS1 inh	RE007 growth inh	MARV entry inh	Cruzain inh noDet	Lassa entry inh	2A StopGo	Cruzain inh Det
CCOC(=O)N1CCN(C(=O)CSCc2ccccc2)CC1
→ 0%	9%	1%	?	6%	?	31%[activator]	-0.5%
COc1cc(C(=O)NCC2CCCO2)ccc1OCc1c(C)noc1C (stereo not given)
→ 1%	-3%	-14%	0%[46.1 µM]	-4%	-8%	-3%	0.7%
O=C(NCCN1CCOCC1)c1ccc(=O)n(Cc2ccc(Cl)cc2)c1
→ -4%	-4%	-6%	1%[46.1 µM]	.	-7%[46.1 µM]	-4%	.
O=C(CSc1ncn(-c2ccccc2)n1)Nc1nc(-c2ccccc2)cs1
→ 22%	8%	-17%	?	?	-27%	-8%	-1.5%
Cc1ccc(NC(=O)CSc2n[nH]c(C)c2[N+](=O)[O-])cc1
→ 14%	9%	1%	5%	-7%	1%	-8%	-0.5%
COC(=O)CSc1nnc(-c2ccccc2OC)o1
→ -6%	-7%	-12%	0%	6%	-2%	8%	2.1%
Cc1ccc(C)c(-n2nnnc2Sc2nnnn2-c2ccccc2)c1
→ -11%	-36%	-13%	15µM*	-1%	?	16µM*	-2.2%
Fc1ccc(C2N(c3ccccc3)C(=S)N3CCCN23)cc1 (stereo not given)
→ 1%	6%	-7%	.	.	.	-26%	.
CCOc1cc(NC(=O)C2CCCCC2)c(OCC)cc1NC(=O)c1ccccn1
→ -1%	-1%	-15%	15%[46.1 µM]	.	?	-9%	.
Cc1ccc(-n2nnnc2SCC(=O)NNC(=O)c2ccco2)c(C)c1
→ 0%	-3%	5%	?	-12%	0%	.	-0.8%
COC(=O)c1c(NC(=O)/C=C/c2ccc(OC)cc2)sc2c1CCC2
→ .	.	.	-14%[46.1 µM]	-9%	6%[46.1 µM]	11%	-2.1%
CCOC(=O)N1CCN(CC(=O)N2CCC(C(N)=O)CC2)CC1
→ 0%	.	4%	0%[46.1 µM]	.	?	-17%	.
COc1ccc(-n2nc3c(c2NC(=O)COc2cccc(OC)c2)CS(=O)(=O)C3)cc1
→ 0%	10%	14%	-2%	.	-3%	-16%	.
CC1(N2CCOCC2)CC2(O)C(=[N+]1[O-])CCc1nonc12 (stereo not given)
→ 2%	-33%	.	-2%	0%	.	.	-1.0%
COc1cc(C(=O)Nc2sc3c(c2C(=O)O)CCC3)cc(OC)c1OC
→ 3%	-1%	-14%	?	.	?	-22%	.
Cc1ccc(NC(=O)c2ccccc2-c2ccccc2C(=O)O)cc1C
→ 1%	-8%	-4%	18%[46.1 µM]	.	?	-3%	.
O=C(Nc1cc(Sc2ccccn2)cc([N+](=O)[O-])c1)c1ccc(Cl)cc1
→ 7%	4%	10%	?	13µM*	?	28µM*	4.3%
NC(=O)c1nsc(C(=O)N(c2ccccc2F)C(C(=O)NCc2ccccc2)c2ccc(O)cc2)c1N (stereo not given)
→ -17%	11%	1%	-22%[46.1 µM]	.	.	?	.
Cc1cc(S(=O)(=O)N2CCN(c3c(C)cccc3C)CC2)ccc1F
→ -22%	-55%	13%	?	-16%	-26%	?	-3.5%
CCOC(=O)c1sc(-c2ccccc2)cc1NC(=O)Nc1ccc([N+](=O)[O-])cc1
→ -2%	-10%	5%	-24%	10µM*	6%	?	-2.9%
Cn1c(=O)c2c([nH]c(=O)n2C)n(C)c1=O
→ 7%	-8%	14%	?	3%	17%	8%	4.9%
CC(C)Cc1ccc(C(C)C(=O)OCC(=O)c2c[nH]c3ccccc23)cc1 (stereo not given)
→ -35%	-143%	3%	-26%	-4%	?	.	-9.2%
Cc1cc(NC(=O)CSc2nc3cc(C)c(C)cc3cc2C)no1
→ 0%	12%	-6%	?	.	4%[46.1 µM]	-11%	.
CCn1cc(C(=O)NCCCO)c(=O)c2cc(F)c(N3CCN(C)CC3)cc21
→ 0%	4%	-7%	.	.	.	-9%	.
Cc1ccc(-n2ncc3c2CCCC3NC(=O)CCn2ccnc2C)cc1C (stereo not given)
→ .	.	1%	?	.	-15%	-12%	.
Cn1c(CN2CCN(CCO)CC2)c(C#N)c2ccccc21
→ 0%	3%	-6%	-3%[46.1 µM]	.	-16%[46.1 µM]	-11%	.
Cc1nn(C/C(C#N)=N\O)c(C)[n+]1N
→ ?	3%	1%	9%	-12%	?	15%	2.4%
O=C(N/C(=C\c1cccnc1)C(=O)N1CCOCC1)c1cccc(Br)c1
→ 3%	8%	5%	17%	-5%	3%	-16%	2.7%
O=C(CSc1ccc2nnc(CCNS(=O)(=O)c3ccccc3)n2n1)Nc1ccccc1C(F)(F)F
→ .	.	.	.	9%	2%[46.1 µM]	15%	-1.7%
Cc1cc(=O)oc(C)c1C(=O)NCc1c(F)cc(F)cc1F
→ 9%	0%	-1%	4%	3%	7%	-20%	-6.0%
COC(=O)c1ccc(NC(=O)COC(=O)C2CC(=O)N(Cc3ccccc3)C2)cc1 (stereo not given)
→ -3%	-6%	2%	7%	.	2%	-7%	.
Cc1c(NC(=O)CSc2ccccc2Cl)c(=O)n(-c2ccccc2)n1C
→ 5%	.	-10%	5%[46.1 µM]	.	?	37%	.
O=S(=O)(Nc1ccc2nc(-c3ccc(F)cc3)oc2c1)c1ccccc1
→ .	.	.	-3%[46.1 µM]	-14%	0%[46.1 µM]	5%	-11%
COc1ccc(C(NC(=O)C(C)C)c2c(O)ccc3ccccc23)cc1OC (stereo not given)
→ .	-4%	3%	-2%	?	-3%	2%	-4.6%
CN(C(=O)CCNC(=O)Cn1cnc2ccccc2c1=O)c1ccc(Br)cc1
→ -1%	6%	9%	-11%[46.1 µM]	.	1%	-6%	.
COc1ccc(-c2cc3nc(C)c(CCC(=O)NCc4ccccc4Cl)c(C)n3n2)c(OC)c1
→ .	.	.	-18%[46.1 µM]	?	-29%[46.1 µM]	-4%	-6.5%
CCOc1ccccc1C1C(C(=O)OC)=CN(C)C=C1C(=O)OC
→ 5%	-5%	9%	4%	?	-8%	-10%	-21%
O=C(CSc1nnc(Cc2ccccc2)n1Cc1ccco1)NC12CC3CC(CC(C3)C1)C2
→ -5%	-14%	0%	?	7%	-5%	-28%	-11%
COc1ccc([N+](=O)[O-])cc1C(=O)NCCOc1ccc(Cl)cc1
→ -2%	-49%	-21%	.	.	.	16%	.
CCOc1ccc(CCNC(=O)CCN2N=C(c3ccc(OC)cc3)CCC2=O)cc1OCC
→ .	.	.	.	?	?	-25%	-2.6%
CCOc1ccc(-c2nnn(CC(=O)c3ccc4c(c3)OCCO4)n2)cc1OCC
→ -3%	0%	3%	5%	?	3%	?	-1.3%
CC(CNC(=O)CC(C)(C)C)NC(=O)CC(C)(C)C (stereo not given)
→ -9%	?	11%	1%	-6%	-20%	2%	-2.6%
Cn1c(=O)oc2cc(S(=O)(=O)NCC3CCCO3)ccc21 (stereo not given)
→ .	23%	-5%	2%	.	-2%	24%	.
Cc1ccc(C)c(S(=O)(=O)N(C(=O)c2ccncc2)c2ccc(OC(=O)c3ccncc3)cc2)c1
→ 0%	-2%	-4%	2%	.	1%	7%	.
CCCCOc1ccc(CSC2=NCCN2)cc1[N+](=O)[O-]
→ -7%	0%	-22%	?	2%	1%	-13%	-0.6%
CCCc1nc2oc3c(NCCCN(C)C)ncnc3c2c2c1CCCC2
→ 1%	2%	-4%	?	.	?	0%	.
CCOc1ccc(CCNc2ncnc3onc(-c4ccc(Cl)cc4)c23)cc1
→ .	.	.	.	0%	-23%[46.1 µM]	?	-1.6%
Cc1ccc(S(=O)(=O)NCCc2cn3ccsc3n2)c(C)c1
→ .	.	.	.	-1%	8%[46.1 µM]	55%[activator]	-1.6%
Cc1cccc(Cc2nc3ccccc3[nH]2)c1
→ .	.	-17%	8%[46.1 µM]	.	-29%[46.1 µM]	4%	.
Cc1ccc2nc3sc(C(=O)NCCCN(C)c4ccccc4)cc3cc2c1
→ .	.	.	.	10%	23%[46.1 µM]	37%[activator]	-5.4%

Other compounds.
Values in the order – SARS PLP yeast	NS1 inh	RE007 growth inh	MARV entry inh	Cruzain inh noDet	Lassa entry inh	2A StopGo	Cruzain inh Det
Cc1cc(C)cc(OCCSc2nc3ccc(NC(=O)c4cccs4)cc3s2)c1
→ .	.	.	-9%[46.1 µM]	20µM*	11%[46.1 µM]	-8%	-1.6%
Cc1cc(C)cc(OC(C)C(=O)Nc2nonc2-c2ccc(Br)cc2)c1 (stereo not given)
→ .	.	.	-3%[46.1 µM]	-4%	11%[46.1 µM]	-30%	-2.6%
CCCn1c(=O)n(N)c2ccccc21
→ 6%	16%	-4%	?	-3%	-4%	-19%	-0.1%
O=C(NCC1CCCN1S(=O)(=O)c1cccs1)c1cccc(Cl)c1 (stereo not given)
→ 1%	.	30%	-17%[46.1 µM]	.	3%	-25%	.
Cc1nc(SCc2ccccc2)c2ccsc2n1
→ 6%	.	4%	-14%[46.1 µM]	.	?	0%	.
Cc1ccc(NC(=O)C2CCN(S(=O)(=O)c3cccc4nsnc34)CC2)cc1F
→ .	.	.	3%[46.1 µM]	4%	-20%[46.1 µM]	-21%	-2.9%
CN(C)C(=O)c1c(-c2ccccc2)oc2ccc(O)cc12
→ -2%	-5%	6%	-1%	-6%	-24%	.	-4.1%
Cc1c(NC(=S)NC(NC(=O)C(C)(C)C)C(Cl)(Cl)Cl)c(=O)n(-c2ccccc2)n1C (stereo not given)
→ 0%	12%	5%	2%	11%	20%	-11%	-0.9%
CCOc1ccc(C(=O)C[n+]2ccccc2C)cc1
→ 1%	-5%	3%	9%	2%	-3%	-16%	-1.2%
COc1cccc2c1O/C(=N\O)C(C(=O)Nc1cccc(C)c1C)C2 (stereo not given)
→ -1%	9%	-7%	-3%[46.1 µM]	.	10%[46.1 µM]	1%	.
CC1=Nc2ccc(C)c3nc(C)cc(c23)N1c1ccc(C)cc1
→ .	.	-3%	-30%	.	?	0%	.
COc1ccccc1C(CCN(Cc1cccs1)C(C)=O)c1ccco1 (stereo not given)
→ -6%	-66%	-1%	?	?	-9%	-24%	-16%
Cc1[nH]nc(N=CC2=C(O)CC(C)(C)CC2=O)c1-c1ccc(Cl)cc1
→ -6%	-84%	-1%&2%	0%[46.1 µM]	?	-1%[46.1 µM]	-25%&11%	-7.0%
